Screening results: PubChem, National Center for Advancing Translational Sciences (NCATS)
AmpC inh no det = blocks E. coli AmpC beta-lactamase in absence of detergent; P00811; AmpC nitrocefin hydrolysis, absorbance 480 nm, no detergent; potencies from a single point are estimates; Potency, µM (highest dose often 28.7 µM), without a hit: top-dose activity change, negative = inhibition; hit rate 1.8% among 71,000; AID 585; active = falling curve, for most hits resting on a single point; inconclusive = weak or doubtful change; inactive = flat or rising curve; note: % of control where 0% means no effect; about half of the hits show no inhibition at the top dose; a quarter of the inactives give rising signals
Target sequence (P00811 whole entry, looked up): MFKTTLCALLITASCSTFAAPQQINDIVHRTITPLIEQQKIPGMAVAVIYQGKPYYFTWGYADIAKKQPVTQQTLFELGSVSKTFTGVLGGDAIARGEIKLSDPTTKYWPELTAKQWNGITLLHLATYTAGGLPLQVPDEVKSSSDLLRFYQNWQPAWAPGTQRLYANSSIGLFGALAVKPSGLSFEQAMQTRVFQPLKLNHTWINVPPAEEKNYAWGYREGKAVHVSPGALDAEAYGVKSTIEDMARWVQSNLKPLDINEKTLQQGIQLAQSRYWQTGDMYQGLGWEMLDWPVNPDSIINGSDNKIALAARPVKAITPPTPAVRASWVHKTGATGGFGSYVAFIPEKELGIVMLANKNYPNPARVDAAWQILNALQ
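AmpC in 20 mM phosphate buffer pH 7.0 was preincubated 15 min at room temperature with compounds. Nitrocefin (800 uM stock) was then added and hydrolysis followed at 480 nm every 20 s for 4 min.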
* marks the source's active call; other numbers are inactive results; ? = inconclusive; [ ] = dose if it differs, or a comment. Potency is the fitted concentration of half-maximal effect.

Structure	AmpC inh no det
O=C(C1CC1)N1CCc2cc(Br)cc(S(=O)(=O)NCc3ccc4c(c3)OCO4)c21	-24.2%
C[C@@H](C(=O)Nc1ccc2ccccc2c1)[C@@H]1C[C@@]1(C)[C@@H](NS(=O)(=O)c1ccc2ccccc2c1)c1ccccc1	-9.1%
CCCCCCN1CC(O)=C(c2nc3ccccc3[nH]2)C1=N	-11.6%
CC(C)(C)C(=O)OCCn1c(=O)c2cc3c(=O)n(CCOC(=O)C(C)(C)C)c(=O)c3cc2c1=O	60.0%
CC(=O)c1cccc(NC(=O)C2CCCCC2)c1	-7.1%
O=C(Nc1ccc(N2CCN(C(=O)c3ccccc3)CC2)c(Cl)c1)c1ccco1	34.4%
CCC/C(O)=C1\C(=O)CC(C)(C)CC1=NCCO	0.1%
CCn1c(NCCc2ccc(OC)c(OC)c2)nc2c1c(=O)n(C)c(=O)n2C	35.7%
COC(=O)c1ccc(C(=O)OC)c(NC(=O)COc2ccccc2OC)c1	21.8%
O[C@@H](Cc1ccncc1)C(Cl)(Cl)Cl	-10.0%
Cn1c(-c2ccc(F)cc2)cnc1SCC(=O)NCc1ccco1	42.3%
O=C(Nc1ccc(Cl)cc1)c1ccsn1	-10.1%
Cn1c(=O)n(Cc2ccccc2)c(=O)c2c1nc1n2CCCN1Cc1ccccc1	96.3%
COc1cc(-n2c(=O)c3ccccc3n(Cc3cccnc3)c2=O)cc(OC)c1OC	26.9%
COc1ccc(Cl)c(Cn2c(NCC(C)O)nc3c2c(=O)n(C)c(=O)n3C)c1 (centres undefined)	28.7%
CCCS(=O)(=O)N1CCN(c2ccccc2F)CC1	17.9%
O=C(Nc1cccc2nsnc12)C1CC(=O)N(c2ccccc2)C1 (centres undefined)	-3.8%
CCOCCn1c(CN2CCOCC2)nc2c1c(=O)[nH]c(=O)n2C	2.8%
COCCN(CCOC)S(=O)(=O)c1ccc(C(=O)Nc2nnc(C)o2)cc1	1.8%
CCCc1nnc(NC(=O)Cn2c(=O)sc3ccccc32)s1	-18.8%
Cc1cccc(-c2nsc(SCC(=O)Nc3cc(C)on3)n2)c1	-13.8%
CCOC(=O)C1C(=O)NC(SCC(=O)Nc2nccs2)=C(C#N)C1c1ccccc1OCC (centres undefined)	?
CCOc1ccc(C)cc1S(=O)(=O)N1CCCCC1	13.9%
NS(=O)(=O)c1ccc(Nc2nc(-c3ccc(O)cc3)cs2)cc1	-21.8%
CCOc1ccccc1NC(=O)C1CCCN(S(=O)(=O)c2ccc(OC)c(C)c2)C1 (centres undefined)	40.4%

Next section; it opens with the three that closed the last part.
Structure	AmpC inh no det
CCOc1ccc(C)cc1S(=O)(=O)N1CCCCC1	13.9%
NS(=O)(=O)c1ccc(Nc2nc(-c3ccc(O)cc3)cs2)cc1	-21.8%
CCOc1ccccc1NC(=O)C1CCCN(S(=O)(=O)c2ccc(OC)c(C)c2)C1 (centres undefined)	40.4%
CCCCCn1c(Br)nc2c1c(=O)n(CC(N)=O)c(=O)n2C	-8.0%
COc1ccc(OC)c(CCNC(=O)CS(=O)(=O)Cc2nc(-c3ccc(C)cc3)oc2C)c1	84.5%
CCNC(=O)CC(=O)Nc1ccccc1C(=O)O	-3.0%
C(=C\c1ccccc1)/C=N/n1cnnc1	0.3%
O=C(CN(C(=O)CCNC(=O)c1ccco1)c1ccccc1)NC1CCCC1	-8.4%
COc1ccc(Cl)cc1NC(=O)CSc1nnc(Cn2c(=O)sc3ccccc32)n1C	25.8%
CCOC(=O)c1c(NC(=O)c2cccs2)sc2c1CCC2	5.1%
CCOC(=O)N1CCN(c2cc(NCCC(=O)O)c3c4c(onc24)-c2ccccc2C3=O)CC1	128.9%
Cc1ccccc1OCCCN1C(=O)C(=O)c2cccc(C)c21	6.1%
CC(C)c1nnc(NC(=O)c2c(O)c3cccc4c3n(c2=O)CC4)s1	69.9%
CCOC(=O)C1CCN(C(=O)Nc2ccc3snnc3c2)CC1	4.2%
COc1cc(=O)[nH]c(SCc2c(F)c(F)c(F)c(F)c2F)n1	-10.4%
O=C(NCc1ccc(F)cc1)C1CCCN1C(=O)NCc1ccccc1 (centres undefined)	6.5%
O=C(Nc1ccc(Cl)c(Cl)c1)N1CCSC1c1ccco1 (centres undefined)	-14.5%
CCOc1ccccc1C1N(c2ccc(OC)cc2)C(=O)C2CCCN21 (centres undefined)	42.0%
COc1cc(-c2nnc(SCc3cc(=O)oc4cc(C)ccc34)o2)cc(OC)c1OC	85.4%
COc1ccc(-c2nc(N3CCOCC3)nc3n[nH]c(N)c23)cc1	-9.2%
Cn1c(SCc2nnc(-c3ccc(F)cc3)o2)nnc1C1COc2ccccc2O1 (centres undefined)	73.2%
Cc1ccc2cc3cc(C(=O)NCCC(C)C)oc3nc2c1	-21.9%
CCCCc1c(O)nc(SCC(=O)NCCc2ccc(OC)c(OC)c2)[nH]c1=O	12.8%
O=C(CCNS(=O)(=O)c1cccc2nonc12)NCCc1ccc(Cl)cc1	1.2%
Cc1nc(Nc2ccc(S(N)(=O)=O)cc2)oc1C	0.6%
CN(C)S(=O)(=O)c1ccc(C(=O)Nc2ccccc2C(=O)O)cc1	-13.1%
COC(=O)c1ccccc1NC(=O)c1noc2c1CCC2	-16.9%
c1ccc(-c2nnc(N3CCN(c4ccccn4)CC3)c3ccccc23)cc1	39.2%

Next part:
smiles	AmpC inh no det
c1ccc(C2=NN[C@@H]3c4ccccc4-c4ccccc4N3C2)cc1	2.9%[5.75 µM]
Cc1cc(=Nc2ccc3c(c2)c(N)cc(C)[n+]3C)nc(N)n1C	6.2%[5.75 µM]
COC(=O)c1ccccc1NC(=O)CN(CCc1ccccc1)S(C)(=O)=O	41.5%
CCn1c(CSc2nnc(-c3ccc4c(c3)OCO4)o2)nc2cc(S(=O)(=O)N(C)C)ccc21	84.2%
CCCNc1nc2c(c(=O)[nH]c(=O)n2C)n1Cc1cccc(Br)c1	-7.9%
CC(C)CN1CCC2(CC1)CCN(C(=O)c1cc(C(F)(F)F)cc(C(F)(F)F)c1)CC2	20.0%
O=C(C1CCCN(S(=O)(=O)c2ccc(Cl)cc2)C1)N(Cc1cccs1)C1CC1 (centres undefined)	15.9%
CCNc1ncc2nc(-c3cccs3)c(=O)n(CCc3ccccc3)c2n1	-14.0%
O=C(NCc1cccnc1)c1ccccn1	-1.3%
Cn1c(-c2ccc(N)cc2)nc2ccccc21	-1.4%
ClC(Cl)(Cl)C(Cl)(Cl)Cl	0.6%
N#CCSc1nnc(COc2cccc3ccccc23)n1-c1ccccc1	77.6%
CCC(C)(C)NC(=O)CN(C(=O)c1snc(C(N)=O)c1N)c1ccc2c(c1)OCCO2	-1.4%
CCOC(=O)Cc1c(C)c2c(C)[nH]nc2oc1=O	-7.5%
CC1(C)Cc2c(C#N)c(N)n(-c3ccccc3)c(=O)c2CO1	1.9%
COCCCNC(=O)C1CCC(=O)N1Cc1ccccc1Cl (centres undefined)	6.3%
CN1CCN(c2ncc3ncc(=O)n(Cc4ccc(F)cc4)c3n2)CC1	43.0%
CN(C(=O)c1ccc(Cl)cc1)C1=CCCCC1CCC#N (centres undefined)	26.2%
O=S(=O)(NCC1CCCO1)c1ccc2oc3ccc(S(=O)(=O)NCC4CCCO4)cc3c2c1 (centres undefined)	41.2%
COc1ccc(C(C)(C)C)cc1NC(=O)C1C2C=CC(C2)C1C(=O)O (centres undefined)	-11.0%
O=C(Cc1cccs1)N(Cc1ccco1)C1(C(=O)NC2CCCC2)CCCCC1	31.7%
CCOc1cc(N2CCOCC2)c(OCC)cc1NC(=O)Cn1[nH]c(=O)c2ccccc2c1=O	13.6%
Cc1cc(C)n(-c2ccc(C(=O)OCC(=O)N(CC(C)C)C3CCS(=O)(=O)C3)cc2)n1 (centres undefined)	100.7%
O=C(c1cc(C(F)(F)F)cc(C(F)(F)F)c1)N1CCC2(CCCN(Cc3ccccc3)C2)CC1	66.9%
COc1ccccc1OCc1nc(C#N)c(NCc2ccco2)o1	6.9%
c1ccc(CSc2ncn(-c3ccccc3)n2)cc1	5.0%
CCCNC(=O)CCNC(=O)c1ccc(C(C)(C)C)cc1	32.9%
CCCOc1ccc(C2C(=O)N(C3CCCCC3)CC(=O)N2CCC)cc1OC (centres undefined)	83.8%
CCCCS(=O)CC(CS(=O)CCCC)OC(=O)c1ccc(C)cc1 (centres undefined)	64.3%
CC(C)CN1CCC2(CC1)CCN(C(=O)c1cnccn1)CC2	-1.7%

Among those listed so far, 8 contain a furan ring, fused or not.
smiles	AmpC inh no det
O=C(Nc1ccc(N2CCN(C(=O)c3ccccc3)CC2)c(Cl)c1)c1ccco1	34.4%
Cn1c(-c2ccc(F)cc2)cnc1SCC(=O)NCc1ccco1	42.3%
O=C(CN(C(=O)CCNC(=O)c1ccco1)c1ccccc1)NC1CCCC1	-8.4%
O=C(Nc1ccc(Cl)c(Cl)c1)N1CCSC1c1ccco1 (centres undefined)	-14.5%
Cc1ccc2cc3cc(C(=O)NCCC(C)C)oc3nc2c1	-21.9%
O=S(=O)(NCC1CCCO1)c1ccc2oc3ccc(S(=O)(=O)NCC4CCCO4)cc3c2c1 (centres undefined)	41.2%
O=C(Cc1cccs1)N(Cc1ccco1)C1(C(=O)NC2CCCC2)CCCCC1	31.7%
COc1ccccc1OCc1nc(C#N)c(NCc2ccco2)o1	6.9%

More records follow.
smiles	AmpC inh no det
CCOC(=O)N1CCC(NC(=O)C2CCN(S(=O)(=O)c3cccc4cccnc34)CC2)CC1	74.1%
CC1CCN(C(=O)CSc2nnc(-c3ccc(S(=O)(=O)N4CCOCC4)cc3)n2C)CC1	55.4%
C=CCn1c(SCc2c(F)cccc2Cl)nnc1-c1ccco1	16.9%
O=C(NCc1ccncc1)c1ccc(Br)o1	-3.2%
CC1Cc2ccccc2N1S(=O)(=O)c1ccc2c(c1)n(C)c(=O)c(=O)n2C (centres undefined)	-7.6%
CN(C)S(=O)(=O)Nc1ccc(Oc2ccccc2)cc1	-11.7%
COc1ccc(C(=O)Nc2cc(Cl)cc(Cl)c2)c(OC)n1	?
COc1ccccc1C(=O)Nc1ccc(S(=O)(=O)N2CCCC2)cc1	11.8%
COc1cc(C(=O)OCC(=O)NCc2ccco2)cc(OC)c1OC	-3.0%
Oc1ccc(Nc2nc(-c3ccc(O)cc3)cs2)cc1	-21.8%
Cc1occc1-c1nnc(SCC(=O)Nc2nccs2)n1Cc1ccco1	14.8%
COC(=O)CSc1cc(SCC(=O)OC)c(C#N)c(SCC(=O)OC)c1	16.1%
CC(C)(C)n1nc2c(c1NC(=O)c1cccc(C(F)(F)F)c1)CS(=O)C2 (centres undefined)	10.2%
COc1cc2c(cc1OC)C(C)N(C(=O)C1COc3ccccc3O1)CC2 (centres undefined)	107.3%
CCCc1c(O)nc(SCCN(CC)CC)n(C(=O)c2ccccc2)c1=O	20.8%
O=C(c1ccc(N2CCOCC2)cc1)c1cccs1	13.2%
COc1ccccc1/C=c1\sc2nc(-c3ccco3)nn2c1=O	1.0%
Cc1ccc(C(=O)CSC2=C(C#N)C(c3ccco3)CC(=O)N2)c(C)c1 (centres undefined)	?
CCC(C)[C@H](NC(=O)NCc1cccc(OC)c1)C(=O)OC (some centres undefined)	-4.0%
CC(=O)[C@H]1CC[C@@H]2[C@H]3CC=C4C[C@@H](O)CC[C@]4(C)[C@H]3CC[C@]12C	-1.1%[12.8 µM]
CCOc1ccc(N2C(=O)CC(Sc3nc(C)cc(C)c3C#N)C2=O)cc1 (centres undefined)	11.4%
O=C(CCN1C(=O)c2ccccc2C1=O)NCCN1CCOCC1	1.5%
O=C(NCCN1CCOCC1)c1cc2c(=O)n3ccccc3nc2n1Cc1ccccc1	-3.4%
CC(C)(C)C1CCc2onc(C(=O)NC3CCCC3)c2C1 (centres undefined)	10.2%
COc1cc2nc(N3CC=[N+](C(=O)c4ccco4)CC3)nc(N)c2cc1OC	9.1%
COc1ccc(-c2nsc3c(N4CCN(S(=O)(=O)c5ccccc5)CC4)ncnc23)cc1	21.4%
O=C(CNC(=O)C1CCCCC1)NCCCO	4.8%
COC(=O)[C@@]1(Cc2ccc(OC)cc2)[C@H]2c3cc(C(=O)N4CCCC4)n(Cc4ccc(C)o4)c3C[C@H]2CN1C(=O)c1ccccc1	130.5%
Cc1ccc2c(c1)c1c3n2CCN(C(=O)CN2CCN(C)CC2)C3CCC1 (centres undefined)	96.1%
O=C(Cc1c(F)cccc1Cl)Nc1ccncc1	-9.9%

A run of entries of the results above, as a working copy:
smiles	AmpC inh no det
COc1ccc(-c2nsc3c(N4CCN(S(=O)(=O)c5ccccc5)CC4)ncnc23)cc1	21.4%
O=C(CNC(=O)C1CCCCC1)NCCCO	4.8%

The list continues:
smiles	AmpC inh no det
Cc1nnc(NC(=O)CCC(=O)N2CCN(CCc3ccccc3)CC2)s1	4.5%
COc1ccc(-n2c(Cc3cccn3C)nnc2SCC(=O)NCc2ccco2)cc1	111.7%
CC(=O)Nc1ccc(N2S(=O)(=O)c3ccccc3S2(=O)=O)cc1	-7.6%
CCOC(=O)N(c1ccccc1)P1(=S)OCC(C)O1 (centres undefined)	7.4%
COc1ccc(Oc2ncc3nc(-c4ccc(OC)cc4)c(=O)n(Cc4cccs4)c3n2)cc1	7.3%
CC(C)=C(NC(=O)c1ccccc1)C(=O)N1CCOCC1	-16.0%
CC1CCCc2sc3nc(N4CCN(CCO)CC4)n4ncnc4c3c21 (centres undefined)	120.4%
CC(C#N)Sc1nc2ccccc2c(=O)n1-c1ccccc1 (centres undefined)	3.4%
Cc1nc(SCC#N)c2c(C)c(C)sc2n1	14.3%
CCCCCn1c(Sc2ncccn2)nc2c1c(=O)[nH]c(=O)n2C	6.4%
COc1cccc(OC)c1C(=O)Nc1cccc(C(C)=O)c1	-3.5%
CC(=O)Cc1nsc(NC(=O)c2ccc(-c3ccccc3Cl)o2)n1	28.6%
CC(Cc1ccccc1)C(=O)NCc1ccccn1 (centres undefined)	8.8%

This is a subset; count on the stated rates, not on these rows.
